fixLJ activator: increases Burkholderia fixLJ two-component signaling | B. multivorans fixK-promoter GFP reporter, 18 h; active compounds read high | z-score (no concentration beside the values) | 0.3% of 29,000 active | AID 1918990;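 active = replicate mean overnight rise in green fluorescent reporter signal, 3 or more SD over negative controls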;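 note: score is relative to vehicle wells of the plate; 300 nL library stock went into each well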
* hit, by the source's call; & = joins results of further samples.

SMILES	fixLJ activator
CCCOc1ccc(-c2nonc2NC(=O)c2cc(OC)c(OC)c(OC)c2)cc1OCCC	-4.1
Cn1ccnc1C(=O)NCCC1CCCCN1S(C)(=O)=O (stereo not drawn)	-1.1
CCCN(CCC)CCCNC(=O)Cn1ncc2c3ccccc3n(Cc3ccccc3)c2c1=O	-0.92
CCc1nnc(CNC(=O)c2ccc(C3CCCO3)s2)s1 (stereo not drawn)	0.06
Cc1c(NC(=O)Nc2ccc(Br)cc2F)sc2nc3n(c(=O)c12)CCC(C)CC3 (stereo not drawn)	-1.2
CCN(CC)S(=O)(=O)c1ccc2c(c1)N(CC(=O)NCCc1ccccc1)C(=O)CO2	-0.86
Cc1cccc(NC(=O)C2CCCN(S(=O)(=O)c3ccc4c(c3)oc(=O)n4C)C2)c1C (stereo not drawn)	-0.65
Cn1cnnc1Sc1ccc(CN2CCn3cccc3C2c2ccccn2)o1 (stereo not drawn)	0.2
N#Cc1nc(/C=C/c2ccc(F)cc2)oc1N1CCCCCC1	0.23
COc1ccccc1/C=C(\C#N)C(=O)NCC1CCCO1 (stereo not drawn)	-0.01
CN(CC(=O)Nc1ccc(Cl)cc1F)S(=O)(=O)c1ccc2c(c1)n(C)c(=O)c(=O)n2C	1.4
Cc1ccc(-c2cc3ncc4c(n3n2)-c2cc(F)ccc2OC4)cc1	-0.1
Cc1cc(C(F)F)n2nc(C(=O)Nc3ccc(C(C)C)cc3)nc2n1	-2.3
NCCCCCc1nnc(SCc2ccc(F)cc2)o1	-2.4
COc1ccc(-n2c(CC3C(=O)Nc4ccc(C)cc43)nc3ccccc3c2=O)cc1 (stereo not drawn)	-3.3
CCn1c(CNC(=O)C23CC4CC(CC(C4)C2)C3)nnc1SCC(=O)Nc1ccc(C)cc1	-1.2
Cc1ccc(NC(=O)C2CCN(S(=O)(=O)c3c(C)noc3C)CC2)c(C)c1	-0.8
Cc1ccc(NC(=O)Cn2cc(C(=O)C3CC3)c3ccccc32)cc1C	-0.47
CCOCCN(CCOCC)C(=O)c1cnn2cccc(C)c12	-2.2
CC(C)c1nnsc1C(=O)Nc1ccc(CC(=O)NC2CC2)cc1	-0.11
Cc1c(C2=CCN(S(=O)(=O)c3cccc(Cl)c3)CC2)c2ccccc2n1CC(=O)N1CCCC1	-1.9
NC(=O)C1CCCN(CCNC(=O)c2ccc(-c3cnc(N)cn3)cc2)C1 (stereo not drawn)	-0.59
Cc1ccc(C2NC(=O)c3n[nH]c(-c4cccs4)c32)cc1 (stereo not drawn)	-0.7
COc1ccc(CNC(=O)c2c(O)nc3cc(C)ccn3c2=O)cc1	0.59
COc1ccc(S(=O)(=O)c2cnc3ccc(Cl)cc3c2N2CCCCC2C)cc1 (stereo not drawn)	1.1
Remaining list, next part
SMILES	fixLJ activator
CN(C)CCCNc1cc(N2CCN(C3CCCCC3)CC2)c2noc3c2c1C(=O)c1ccccc1-3	-31
COc1ccc(NC(=O)Cn2c(=O)n(-c3ccccc3)c(=O)c3c4c(sc32)CCCC4)cc1	-1.3
CC1=C(C(=O)Nc2ccc(F)cc2)C(c2ccc(N(C)C)cc2)NC(=O)N1 (stereo not drawn)	0.81
Cc1nc(SCC(=O)N2CCC(Oc3ccc(F)cc3)CC2)n[nH]1	-0.83
O=C(c1cc2c(Cl)nc3ccccc3c2s1)N1CCCCC1	-0.17
O=C(CCS(=O)(=O)c1nc(-c2cccs2)cc(C(F)(F)F)n1)Nc1ccc(F)c(Cl)c1	-0.12
CCc1ccc(NC(=O)c2cc3nc(-c4ccc(C)cc4)cc(C(F)(F)F)n3n2)cc1	-2.1
Cc1nc(CCNC(=O)CN2CCC(c3ccccc3)C2)nc2c1CCC2 (stereo not drawn)	-0.85
COc1ccc(-c2oc3ncn4nc(-c5ccc(Cl)cc5)nc4c3c2-c2ccc(OC)cc2)cc1	-0.5
CCN(CC)c1nc2c(-c3cccc(Br)c3)nnn2c2ccccc12	-0.95
Cc1ccc(C(=O)NCCOc2nonc2C)cc1N1CCNC1=O	0.32
CC1CCCCN1C(=O)CSc1nnc(-c2ccccc2Cl)o1 (stereo not drawn)	-0.99
CC(C)NC(=O)CSc1nc2ccccc2nc1N1CCCCC1	-1.6
O=C(Cn1c(=O)nc(-c2ccccc2)c2cc(Cl)ccc21)Nc1ccc(F)c(Cl)c1	-2.4
CCCCN1C(=O)C(NC(=O)c2ccc(C(C)(C)C)cc2)(C(F)(F)F)C(C(=O)OC)=C1C (stereo not drawn)	0.64
O=C(O)CCCC(=O)N1CCc2c(c(C(=O)O)nn2CC2CC2)C1	-0.73
O=C(Cn1nc2ccccc2n1)N1CCC(CCn2cccn2)CC1	-1.6
Cc1ccc(C)c(NC(=O)CN(CCc2ccccc2)S(=O)(=O)c2ccccc2)c1	1.9
CC1CCCCN1C(=O)c1ccc2c(c1)N(Cc1ccc(F)cc1)C(=O)c1ccccc1S2(=O)=O (stereo not drawn)	-0.53
Cc1cccc(N2CCN(C(=O)Cn3nc(Cc4cccnc4)c4ccccc4c3=O)CC2)c1C	-0.22
Cc1ccc(-n2c(=O)c3ccc(C(=O)NCc4ccco4)cc3n(Cc3ccccc3C#N)c2=O)cc1	0.49
COc1ccc(C2CC(=O)c3cc(-c4nc(-c5cccc([N+](=O)[O-])c5)cs4)c(=O)n(-c4cc(C)cc(C)c4)c3C2)cc1 (stereo not drawn)	0.1
O=C(c1cc(=O)[nH]c2ccccc12)N1CCC(C(O)c2cccs2)CC1 (stereo not drawn)	0.25
CC1CCCN(Cc2c(O)ccc3c(=O)c(Oc4ccccc4Cl)c(C(F)(F)F)oc23)C1 (stereo not drawn)	-1.2
Cc1coc2cc3oc(=O)c(CC(=O)NCc4ccccc4)c(C)c3cc12	-1.6
Later entries:
SMILES	fixLJ activator
Cc1ccc(C)c(N2CCN(C(=O)C3CCCN(S(=O)(=O)c4ccc5c(c4)oc(=O)n5C)C3)CC2)c1 (stereo not drawn)	-1.4
c1ccc(C2CC(c3noc(CCCN4CCOCC4)n3)[C@@H]3CCCN23)cc1 (stereo partly drawn)	-2.1
COc1cc(OC)cc(-c2nnc(SCC(=O)N3CCC(C)CC3)o2)c1	0.29
CCOc1ccccc1C(=O)NC1(C(F)(F)F)C(=O)Nc2c1c(=O)[nH]c(=O)n2-c1ccccc1 (stereo not drawn)	-3.7
O=C(Nc1ccc(OCc2cc(=O)n3c4c(sc3n2)CCCC4)cc1)c1cccc(F)c1	-0.34
COc1cccc(CNC(=O)Cc2c(C)c3ccc(OC)c(C)c3oc2=O)c1	-1.1
CCOc1ccc(C(=O)N2CCC(c3noc(-c4ccc(S(=O)(=O)N5CCCC5)cc4)n3)CC2)cc1	0.17
Cc1ccc(CNC(=O)C2CCN(c3cc(C)nc4cc(C)nn34)CC2)cc1	0.38
CCOc1ccc(-n2cc(C(=O)Nc3ccccc3OCC)c3cc(OC)c(OC)cc3c2=O)cc1	-0.42
COc1ccc(OC)c(CNC(=O)c2cc3c(Cl)nc4ccccc4c3s2)c1	0.46
CCNC(=O)CC1C(=O)NCCN1Cc1cccc(Oc2ccccc2)c1 (stereo not drawn)	-1.7
CCc1ccc(-c2nc(SCC(=O)NCC3CCCO3)c(-c3ccc(F)cc3)[nH]2)cc1 (stereo not drawn)	-0.44
COc1cc2c(cc1OC)C(COc1ccc3c(C)cc(=O)oc3c1)N(C(=O)Cc1ccc(F)cc1)CC2 (stereo not drawn)	0.17
O=C(c1ccc(NCCO)nc1)N1CCCC(Cn2ccnc2)C1 (stereo not drawn)	-2.3
CCCSc1ncc(-c2nccn2CCn2cccn2)cn1	-0.15
CCOc1ccc(NC(=O)c2cn(C3CCCCC3)c(=O)c3c2c2ccccc2n3C)cc1	-1.2
Cc1ccc(CC(=O)NCc2nc(-c3cccc(C)c3)no2)cc1	-2.6
O=C(c1cn[nH]n1)N1CCC(c2nnc3n2CCCCC3)CC1	0.26
O=C(c1cccc(N2CCNC2=O)c1)N1CC(c2ccccn2)C1	0.02
Cn1c(C2CCN(C(=O)CSc3nnc(N)s3)CC2)nc2ccccc21	0.47
COC(=O)c1c(C)oc2ccc(N(C(=O)c3ccncc3)S(=O)(=O)c3cc(C)c(C)cc3C)cc12	-2.1
O=C(CCc1nc2ccccc2[nH]1)N1CCCN(C(=O)CCn2cnnc2)CC1	-1
CCN(Cc1ccncc1)C(=O)C(CO)c1ccccc1 (stereo not drawn)	-2&-0.27
Cc1ccc(-c2nnc(Nc3ccc(O)cc3)c3ccccc23)cc1S(=O)(=O)NCc1nc2ccccc2[nH]1	-1.4
COc1nc2c(cc1C(=O)NCc1noc(Cc3cccs3)n1)CCC2	-1.8

The last 4 records of the section before are carried over, then new ones follow.
SMILES	fixLJ activator
O=C(CCc1nc2ccccc2[nH]1)N1CCCN(C(=O)CCn2cnnc2)CC1	-1
CCN(Cc1ccncc1)C(=O)C(CO)c1ccccc1 (stereo not drawn)	-2&-0.27
Cc1ccc(-c2nnc(Nc3ccc(O)cc3)c3ccccc23)cc1S(=O)(=O)NCc1nc2ccccc2[nH]1	-1.4
COc1nc2c(cc1C(=O)NCc1noc(Cc3cccs3)n1)CCC2	-1.8
Cc1cc(OCC(=O)Nc2sc3c(c2C(N)=O)CCCC3)ccc1C(C)C	0.79
O=C(C1CCC1)N1CCCn2nc(CNc3ncnc4c3CCC4)cc2C1	0.38
CCOc1ccccc1-c1noc(CSc2nnc(-c3ccncc3)n2-c2ccc(F)cc2)n1	-2.7
COc1ccc(CNC(=O)CC2Oc3ccc(C)cc3NC2=O)cc1 (stereo not drawn)	0.23
COc1ccc(-c2cc(C(=O)Nc3cccnc3)no2)cc1OC	-1.7
COc1ccc(Cl)cc1N(C)C(=O)Cn1cnc2sc(C)c(S(=O)(=O)N3CCN(c4ncccn4)CC3)c2c1=O	-0.46
COc1ccccc1/C=C/c1nc2ccccc2n1C(C)C	-2
CCc1nn2c(=O)c(S(=O)(=O)Nc3ccc(C(C)C)cc3)c(C)nc2s1	-1.1
CCOC(=O)c1ccc(N2C(=O)c3n[nH]c(C)c3C2c2ccc(OCC)cc2)cc1 (stereo not drawn)	-4
Cn1c(=O)[nH]c(=O)c2c1nc(CN1CCN(c3ccccc3F)CC1)n2Cc1ccc(F)cc1	-0.51
COc1ccc(-c2cc(C(F)(F)F)nc(SCC(=O)N3CCC(C)CC3)n2)cc1	-0.79
Cc1ccc(N(C)S(=O)(=O)c2ccc3[nH]cc(C(=O)O)c(=O)c3c2)cc1C	-0.66
Cc1cc(=O)c(C(=O)N2CC3COc4ccccc4C[C@@]3(C(=O)O)C2)c[nH]1 (stereo partly drawn)	-0.7
CCN1CC2(CCC1=O)CCN(C(=O)Nc1cc(C)ccc1OC)CC2	-0.52
O=C(CSc1nnc(-c2ccccc2)o1)c1cccc([N+](=O)[O-])c1	-0.67
CO[C@H]1[C@@H]([C@@]2(C)O[C@@H]2CC=C(C)C)[C@]2(CC[C@H]1OC(=O)/C=C/C=C/C=C/C=C/C(=O)O)CO2	-1.9
Cc1ccc2nc(-c3ccc(O)cc3)c(Nc3ccc(Cl)cc3)n2c1	-0.01
Cc1nonc1C(=O)N1CCCN(c2nc3ccccc3s2)CC1	1.1
COc1ccccc1C1Nc2c(sc3nc(C)cc(C)c23)C(=O)N1c1ccccc1 (stereo not drawn)	-0.42
COCCNC(=O)CCCn1c(SCc2ccccc2Cl)nc2c(sc3ccccc32)c1=O	2.2
COc1ccc(CNC(=O)c2cc3sccc3n2Cc2ccc(F)cc2)cc1	-0.75
COc1ccc(-c2cc(-c3ccc(C)cc3)nc3c2COc2ccccc2-3)cc1	1
COc1cccc(C)c1C(=O)N1CCC(NS(C)(=O)=O)CC1	-2.5
CCCc1cc(C(=O)NC2CCOCC2OCc2ccccc2)n(C)n1 (stereo not drawn)	-1.4
CN1CC2CN(C(=O)c3c(F)cccc3F)C[C@@]2(C(=O)O)C1 (stereo partly drawn)	-0.77
The list continues.
SMILES	fixLJ activator
CCCCN(C)C(=O)Cn1cnc2sc(C)c(S(=O)(=O)N3CCC(C)CC3)c2c1=O	0.5
COCCn1c(=N)c(C(=O)NC2CCCC2)cc2c(=O)n3cc(C)ccc3nc21	-0.17
Cc1ccc(C)c(Cn2c(=O)n(Cc3ccccc3)c(=O)c3sc4ccccc4c32)c1	-1.7
CN(C)c1ccc(CN(CC2CCCO2)C(=O)COc2ccc(Cl)cc2)cc1 (stereo not drawn)	-0.71
O=S(=O)(c1ccc(Cl)cc1)c1nc(-c2ccco2)oc1SCc1ccc(F)cc1	0.77
COCC1=C(C(=O)OC(C)OC(=O)OC(C)C)N2C(=O)[C@@H](NC(=O)/C(=N/OC)c3csc(N)n3)[C@H]2SC1 (stereo partly drawn)	-1.9
Cc1cc(C)n2nc(SCC(=O)Nc3cc(Cl)ccc3C)nc2n1	-0.46
N#Cc1ccc(-c2cccs2)nc1SCc1ccc(Br)cc1	-1.2
CCC(=O)N1CCc2cc(S(=O)(=O)Nc3cc(C)ccc3OC)ccc21	-1.4
Clc1ccc(-c2nnn3c2nc(N2CCCCC2)c2ccccc23)cc1	-1.5
Cc1ccc(OCc2nc3ccccc3n2CC(C)C)cc1	-3.7
Cc1ccccc1NC(=O)c1ccccc1NC(=O)c1ccccc1F	-0.91

Of the compounds above, 6 have a CF3 group:
SMILES	fixLJ activator
O=C(CCS(=O)(=O)c1nc(-c2cccs2)cc(C(F)(F)F)n1)Nc1ccc(F)c(Cl)c1	-0.12
CCc1ccc(NC(=O)c2cc3nc(-c4ccc(C)cc4)cc(C(F)(F)F)n3n2)cc1	-2.1
CCCCN1C(=O)C(NC(=O)c2ccc(C(C)(C)C)cc2)(C(F)(F)F)C(C(=O)OC)=C1C (stereo not drawn)	0.64
CC1CCCN(Cc2c(O)ccc3c(=O)c(Oc4ccccc4Cl)c(C(F)(F)F)oc23)C1 (stereo not drawn)	-1.2
CCOc1ccccc1C(=O)NC1(C(F)(F)F)C(=O)Nc2c1c(=O)[nH]c(=O)n2-c1ccccc1 (stereo not drawn)	-3.7
COc1ccc(-c2cc(C(F)(F)F)nc(SCC(=O)N3CCC(C)CC3)n2)cc1	-0.79

The list is partial. The share of hits here may be higher or lower than overall.
